GIRK2 activ: activators of human GIRK2 potassium channels. actives 0.05% (n = 63,000). P48051. calls only for hits at 25 µM. HEK293-GIRK2 thallium flux, Thallos fluorescence;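 active = among the strongest 0.2% of first-round signals and kept after retests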;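 note: first round at about 10 µM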
Target sequence (P48051 whole entry, looked up): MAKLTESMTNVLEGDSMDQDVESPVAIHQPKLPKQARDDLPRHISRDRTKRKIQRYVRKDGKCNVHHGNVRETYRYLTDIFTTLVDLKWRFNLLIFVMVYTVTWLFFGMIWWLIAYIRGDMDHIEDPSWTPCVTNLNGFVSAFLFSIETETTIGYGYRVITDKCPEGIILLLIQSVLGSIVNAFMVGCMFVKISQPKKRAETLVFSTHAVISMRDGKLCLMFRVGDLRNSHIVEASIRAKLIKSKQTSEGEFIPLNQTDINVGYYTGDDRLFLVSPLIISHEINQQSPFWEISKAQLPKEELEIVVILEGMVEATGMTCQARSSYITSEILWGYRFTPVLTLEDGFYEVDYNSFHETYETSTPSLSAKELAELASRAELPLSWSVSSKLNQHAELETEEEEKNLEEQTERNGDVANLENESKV
Calls only; i = inactive. Only part of the results is shown; count on the stated rates, not on these rows.

SMILES	GIRK2 activ
COc1ccccc1N1CC(C)Cn2c1nc1c2c(=O)n(Cc2ccccc2)c(=O)n1C (centres undefined)	i
CN(CC#CCNC(=O)C1CCCN(C)C1)Cc1ccccc1 (centres undefined)	i
O=C(NCCOc1ccc(-c2ccccn2)nn1)C1CC(=O)N(c2cccc(Br)c2)C1 (centres undefined)	i
Cc1c(Cl)cccc1NC(=O)Cc1cc(=O)[nH]c(SCc2ccccc2F)n1	i
O=C(CSc1ccc(S(=O)(=O)c2ccccc2)nn1)N1CCN(c2ccccc2)CC1	i
O=C(Nc1ccc(OC(F)(F)F)cc1)c1csc(-c2cnccn2)n1	i
COc1ccc(Cl)cc1NC(=O)NCCc1ccoc1	i
CCN1CCN(c2nc(S(=O)(=O)c3ccc(C)cc3)c(Cl)s2)CC1	i
O=C(CN1CCc2nc(NC(=O)c3ccoc3)sc2C1)Nc1cccnc1	i
O=C(C1CC1)N1CCN(Cc2nc3ccccc3[nH]2)CC1	i
COc1ccc(S(=O)(=O)NCc2ccco2)c(C)c1C	i
CCCCC/C=C\C/C=C\C/C=C\C/C=C\CCCCNC(=O)c1ccc(O)cc1	i
CCOc1ccc(S(=O)(=O)NCc2ccco2)cc1C(C)(C)C	i
O=C(NCc1cccs1)NCC1CCN(S(=O)(=O)c2cccnc2)CC1	i
CCc1ccc(-c2noc(CSc3nc4[nH]ncc4c(=O)n3-c3ccccc3)n2)cc1	i
COc1cc(-c2nnc(NC(=O)c3cc(C)n(C)n3)o2)cc(OC)c1OC	i
O=S(=O)(c1ccccc1)c1nc(S(=O)(=O)c2ccc(Cl)cc2)c(N2CCCC2)s1	i
COc1ccc(CCNC(=O)N2CC(c3nc(-c4ccccn4)no3)C2)cc1	i
O=C(c1ccc(-n2cccc2)cc1)N1CCN(Cc2csc(-c3ccccc3)n2)CC1	i
COc1ccc(OC)c(NC(=O)Cn2c(=O)n(CCc3nc(C)no3)c(=O)c3ccccc32)c1	i
CCOc1ccc(CC2S/C(=C(/C#N)C(=O)Nc3ccccc3)N(c3ccccc3)C2=O)cc1 (centres undefined)	i
CCOc1ccccc1C(=O)NC1CCN(Cc2noc(-c3ccccc3)n2)C1 (centres undefined)	i
C=CCn1c(-c2ccc([N+](=O)[O-])cc2)nc2nc3ccccc3nc21	i
COC(=O)c1ccc(NC(=O)Cn2cccc(-c3nc(-c4ccc(Cl)cc4)no3)c2=O)cc1	i
COc1nn(C)cc1C(=O)N1CCC2(CC1)OCCS2	i
(further entries)
SMILES	GIRK2 activ
COc1ccc(CCC(=O)N2CCC(S(C)(=O)=O)CC2)cc1	i
Cc1ccc(S(=O)(=O)N(C)c2c(C)ccc(S(=O)(=O)N3CCN(C)CC3)c2C)cc1	i
CCSc1ccccc1C(=O)N1CCC(Cn2ccnc2)CC1	i
Cc1cccc(NC(=O)CSC2=C(C#N)C(c3ccc(F)cc3)CC(=O)N2)c1 (centres undefined)	i
Cc1ccc(C)c(NC(=O)Cn2nc3c(=O)n(-c4ccc(Br)cc4)ccn3c2=O)c1	i
CCN(CC)CCn1c(C)c(C)n2c3c(=O)n(Cc4ccccc4C)c(=O)n(C)c3nc12	i
COc1ccccc1N1CCN(C(=O)CCn2c(=S)[nH]c3cc4c(cc3c2=O)OCO4)CC1	i
COc1ccc(NC(=O)Cn2nc3c4cc(-c5ccc(C)c(C)c5)nn4ccn3c2=O)c(OC)c1	i
COc1nn(C)cc1C(=O)Nc1nnc(Cc2ccc(F)cc2)o1	i
COC(=O)c1ccc(NC(=O)C(=O)NCC(O)c2sccc2C)cc1 (centres undefined)	i
Cc1ccc(C(=O)Nc2ccc(Cn3cnc(C(=O)Nc4ccc(F)c(F)c4)c3)cc2)cc1	i
Cc1cccc(N2CCN(c3c(C)c(C)nc4c(-c5ccccc5)cnn34)CC2)n1	i
CSCC(C)(O)CNC(=O)NCCc1ccccc1 (centres undefined)	i
Cc1cc(C)c(S(=O)(=O)Nc2cnc(Oc3ccccc3F)nc2)cc1C	i
COC(=O)COc1ccc2c(c1)O/C(=C\C=C\c1ccccc1OC)C2=O	i
CC(C)(C)NCC(O)c1cc(O)cc(O)c1 (centres undefined)	i
O=C(NCCCc1ccccc1)c1cn(-c2cccc(F)c2)nn1	i
O=C(NCCn1nc(-c2ccco2)ccc1=O)C1CC(=O)N(c2cccc(Br)c2)C1 (centres undefined)	i
COc1ccc(CC(=O)NCC2(c3ccccc3OC)CCOCC2)cc1OC	i
C[C@@]12CC3(S(=O)(=O)O)OC(O1)C1(COC(=O)c4ccccc4)[C@H]3C[C@@]12O[C@@H]1O[C@H](CO)[C@@H](O)[C@H](O)[C@H]1O	i
CCCN1CCCc2cc(CCNC(=O)c3cc(OC)c(OC)c(OC)c3)ccc21	i
COc1cc(=O)c(C(=O)NCc2ccco2)nn1-c1ccc(C)cc1	i
Cc1cc(C)c(NC(=O)C(C)Oc2cccc(Br)c2)c(C)c1 (centres undefined)	i
COc1ccc(OC)c(NC(=O)Cn2c3ccccc3c3ncn(Cc4ccccc4)c(=O)c32)c1	i
CS(=O)(=O)c1cccc(C(=O)Nc2cccc(Cl)c2)c1	i

18 successive entries already listed, for reference:
SMILES	GIRK2 activ
CCCCC/C=C\C/C=C\C/C=C\C/C=C\CCCCNC(=O)c1ccc(O)cc1	i
CCOc1ccc(S(=O)(=O)NCc2ccco2)cc1C(C)(C)C	i
O=C(NCc1cccs1)NCC1CCN(S(=O)(=O)c2cccnc2)CC1	i
CCc1ccc(-c2noc(CSc3nc4[nH]ncc4c(=O)n3-c3ccccc3)n2)cc1	i
COc1cc(-c2nnc(NC(=O)c3cc(C)n(C)n3)o2)cc(OC)c1OC	i
O=S(=O)(c1ccccc1)c1nc(S(=O)(=O)c2ccc(Cl)cc2)c(N2CCCC2)s1	i
COc1ccc(CCNC(=O)N2CC(c3nc(-c4ccccn4)no3)C2)cc1	i
O=C(c1ccc(-n2cccc2)cc1)N1CCN(Cc2csc(-c3ccccc3)n2)CC1	i
COc1ccc(OC)c(NC(=O)Cn2c(=O)n(CCc3nc(C)no3)c(=O)c3ccccc32)c1	i
CCOc1ccc(CC2S/C(=C(/C#N)C(=O)Nc3ccccc3)N(c3ccccc3)C2=O)cc1 (centres undefined)	i
CCOc1ccccc1C(=O)NC1CCN(Cc2noc(-c3ccccc3)n2)C1 (centres undefined)	i
C=CCn1c(-c2ccc([N+](=O)[O-])cc2)nc2nc3ccccc3nc21	i
COC(=O)c1ccc(NC(=O)Cn2cccc(-c3nc(-c4ccc(Cl)cc4)no3)c2=O)cc1	i
COc1nn(C)cc1C(=O)N1CCC2(CC1)OCCS2	i
COc1ccc(CCC(=O)N2CCC(S(C)(=O)=O)CC2)cc1	i
Cc1ccc(S(=O)(=O)N(C)c2c(C)ccc(S(=O)(=O)N3CCN(C)CC3)c2C)cc1	i
CCSc1ccccc1C(=O)N1CCC(Cn2ccnc2)CC1	i
Cc1cccc(NC(=O)CSC2=C(C#N)C(c3ccc(F)cc3)CC(=O)N2)c1 (centres undefined)	i

Later entries:
SMILES	GIRK2 activ
COc1ccc(C)cc1NC(=O)CSc1nccnc1-n1nc(C)cc1C	i
COc1cccc(NC(=O)Cn2ccn(Cc3ccccc3)c(=O)c2=O)c1	i
O=C(Cc1ccc(F)cc1)N1CCC(CSCc2ccco2)CC1	i
COc1cc(S(=O)(=O)N2CCN(S(=O)(=O)c3cc(OC)c(C)cc3C)C(C)C2)c(C)cc1C (centres undefined)	i
COc1ccc(C(=O)N2CCN(Cc3c(C)noc3C)CC2)cc1OC	i
O=C(CSc1nnnn1-c1ccc(F)cc1)Nc1nccs1	i
CCCCCn1c(N2CCN(CC(=O)OCc3ccccc3)CC2)nc2c1c(=O)[nH]c(=O)n2C	i
O=C(CSc1nnc(Cn2ccc(=O)[nH]c2=O)o1)NCc1ccc2c(c1)OCO2	i
COc1ccc(OCc2noc(CNC(=O)c3ccc(-n4cccc4)cc3)n2)cc1	i
O=S(=O)(NCCCN1CCN(c2ccccc2)CC1)c1cccc(F)c1	i
O=C(Nc1nc2c(s1)CN(C(=O)NCc1cccs1)CC2)C1CC1	i
Cc1c(Cl)cccc1NC(=O)Cn1cccc(-c2nc(-c3ccccc3)no2)c1=O	i
O=C(c1ccc(F)cc1Cl)N1CCC(Oc2ccc(Cl)cn2)CC1	i
COc1ccc(N/C=C(/C#N)c2nc(-c3ccc(OC(C)=O)cc3)cs2)cc1OC	i
CCN(CC)CCN(C(=O)c1ccco1)c1nc2c(C)cc(C)cc2s1	i
CCCCc1ccc(-n2c(C)cn3c4c(=O)n(CCOC)c(=O)n(C)c4nc23)cc1	i
COc1ccc(Cn2c(C)nc3c(c(=O)c4ccccc4n3C)c2=O)cc1	i
COC(=O)Cn1c(=O)c2c(nc3n(Cc4ccccc4)c(C)c(C)n23)n(C)c1=O	i
CCOc1ccccc1-n1ccnc(NCc2ccc(OC)cc2)c1=O	i
O=C(c1cc(-c2ccco2)on1)N1CCC2(CC1)OCCCO2	i
O=C(NC1CCN(c2ccc(-c3cccc(F)c3)nn2)CC1)C1COc2ccccc2O1 (centres undefined)	i
O=S(=O)(NCC1(c2ccccc2)CCOCC1)c1ccc(F)c(Cl)c1	i
Cc1noc(C2CN(C(=O)c3cn(C)nn3)C2)n1	i
O=C(/C=C/c1ccc(O)c(O)c1)O[C@@H]1CC(O)(C(=O)O)C[C@@H](OC(=O)/C=C/c2ccc(O)c(O)c2)C1O (some centres undefined)	i
COc1cccc(CNC(=O)CC2CCCCN2S(=O)(=O)c2ccc(C)cc2)c1 (centres undefined)	i
Going on with the list:
SMILES	GIRK2 activ
CCOc1ccc(C(C)C)cc1S(=O)(=O)N1CCc2ccccc21	i
COc1cccc(CNC(=O)Cn2c(=O)c(N3CCCCC3)nc3ccccc32)c1OC	i
COc1ccc(N2CCN(CC(O)COCC3CC4CCC3C4)CC2)cc1 (centres undefined)	i
O=C(NCCCc1ccccc1)N1CCC(Oc2ccccn2)CC1	i
COc1cccc(OCC(=O)Nc2ccc(N3CCCCC3=O)c(OC)c2)c1	i
NS(=O)(=O)c1ccc(CCNC(=O)CCCn2cccc2)cc1	i
COCCn1c(N)c(C(=O)OCC2CCCO2)c2nc3ccccc3nc21 (centres undefined)	i
CCNC(=O)Nc1cn(C)c2ccccc12	i
CCCCC(=O)N1CCN(c2nnc(SCC(N)=O)s2)CC1	i
CC1Oc2ccccc2N(Cc2nc(-c3ccc(OCc4ccccc4)cc3)no2)C1=O (centres undefined)	i
CCc1ccc(S(=O)(=O)NCC2CCS(=O)(=O)C2)s1 (centres undefined)	i
Cc1nc(C)c(-c2nnc(NC(=O)NCc3ccc(F)cc3)o2)s1	i
COc1ccc(OC)c(CNC(=O)CCc2nnc3ccc(-c4ccc(C)c(C)c4)nn23)c1	i
O=C(CNC(=O)c1ccc(=O)[nH]c1)NCCc1cccs1	i
COc1cccc(C(=O)Nc2c3c(nn2CC(=O)NCc2ccccc2)CSC3)c1	i
Cn1c(C2CCC(CNC(=O)c3cncc(Br)c3)CC2)nc2ccccc21 (centres undefined)	i
Cc1c(C(=O)NCCc2ccc(S(N)(=O)=O)cc2)nnn1-c1nccs1	i
COCCn1c(-n2nc(C)c(C)c2C)nc2c1c(=O)n(CC(=O)C(C)(C)C)c(=O)n2C	i
COCCNC(=O)C(=O)NCC1OCCCN1S(=O)(=O)c1ccc(OC)cc1 (centres undefined)	i
CCC(=O)NCC1CCN(CCOC)CC1	i
O=C(NCC1(CO)CC1)c1ccccc1Br	i
COc1ccc(CCNC(=O)CC2CCCCN2S(=O)(=O)c2ccc(F)cc2)cc1 (centres undefined)	i
COc1ccc(Nc2c(C(=O)N3CCCC3)cnc3nc(C)ccc23)cc1Cl	i
Cc1cc(-n2nc(C)cc2C)n2nc(C)c(-c3ccc(Cl)cc3)c2n1	i
COCCCNc1ncc2c(=O)n(Cc3ccccc3)c(=O)[nH]c2n1	i
Next records.
SMILES	GIRK2 activ
O=C1CC(c2noc(Cc3cccs3)n2)CN1CCc1ccccc1 (centres undefined)	i
Cc1cccc(C)c1NC(=O)CSc1nc2c(sc(=S)n2-c2ccccc2)c(=O)[nH]1	i
CC(C)(C)c1csc(CN2CCN(CC(=O)Nc3nc4ccccc4s3)CC2)n1	i
Cc1noc(C)c1CC(=O)N1CCc2nc(NC(=O)c3ccco3)sc2C1	i
Cc1cc(-c2nnc(NC(=O)C(C)(C)Oc3ccc(Cl)cc3)o2)c(C)o1	i
C/C=C/C(=O)N1CCC(CSCc2ccco2)CC1	i
COc1cccc(-c2cc(C(=O)Nc3ccc(F)c(F)c3)n(C)n2)c1	i
Cc1ccc(/C=C/S(=O)(=O)Nc2ccc(CC(=O)NC3CC3)cc2)cc1	i
Cc1cnc(-n2nnc(C(=O)N3CCN(C(=O)c4ccco4)CC3)c2C)s1	i
CC(C)N1COc2ccc3c(=O)c(-c4ccccc4)coc3c2C1	i
CCOC(=O)c1ccc(NS(=O)C23CC4CC(CC(C4)C2)C3)cc1 (centres undefined)	i
O=C(Nc1nc2c(s1)Cc1ccccc1-2)c1cc(-c2ccco2)on1	i
Cn1c(=O)c2c(ncn2CCc2ccccc2)n(C)c1=O	i
Cc1ccccc1/C=N\n1c(N)c(C(=O)NCC2CCCO2)c2nc3ccccc3nc21 (centres undefined)	i
COc1ccc(NC(=O)CN2CCC(c3nc(-c4cccc(F)c4)no3)CC2)c(OC)c1	i
CCN1C(=O)C(C)(C)COc2ccc(NC(=O)Nc3cc(Cl)ccc3OC)cc21	i
CCOC(=O)c1ccccc1NC(=O)Cn1ccn2nc(-c3ccc(C)cc3)cc2c1=O	i
COC(=O)c1ccc(CSc2ncnc3nc[nH]c23)cc1	i
Cc1ccc(-n2c(C)c(C)n3c4c(=O)n(CC(N)=O)c(=O)n(C)c4nc23)cc1C	i
CC(C)NC(=O)Cn1c(=O)c2c(N3CCN(C(=O)c4ccco4)CC3)ccnc2n(C)c1=O	i
Cn1c(=O)c(C(=O)Nc2ccc(Br)cc2)cc2cccnc21	i
COCC(=O)Nc1cc(C2CC2)nn1-c1nc(-c2ccccc2)cc(=O)[nH]1	i
O=c1c2ccccc2n(Cc2nc(-c3ccc(OC(F)(F)F)cc3)no2)c(=O)n1Cc1ccco1	i
O=[N+]([O-])c1cccc(OS(=O)(=O)N2CCOCC2)c1	i
COc1ccc(OC)c(-c2ccc(=O)n(CCc3nc(-c4ccc5c(c4)OCO5)no3)n2)c1	i
O=S(=O)(c1cccc(-c2nnc(SC/C=C/c3ccccc3)o2)c1)N1CCCCCC1	i
O=S(=O)(Cc1ccccc1Cl)NCC1COC2(CCCCC2)O1 (centres undefined)	i
CSCCC(Nc1ncnc2c1c(C)c(C)n2Cc1ccco1)C(=O)O (centres undefined)	i
COC(=O)CNC(=O)C12CC3(C)CC(C)(CC(C)(C3)C1)C2	i
